# Screens (PubChem)
# H5N1 antiviral: antiviral screen in MDCK cells, H5N1 avian flu | cytopathic effect, luminescence, 72 h; active compounds read high; no value below 0 was filed and about half of the inactive calls have no number; reference of the scale not given here | inhibition, % at 50 µM | 0.07% of 96,000 active; in the data active = inhibition above about 25%
# * = called active by the depositor; i = inactive. These rows are one share of the data; the hit share may differ from the screen's.
# Start of the data: the first 5 entries, to show the layout:
structure	H5N1 antiviral
COc1ccc(/C(=N\O)c2ncc(C(F)(F)F)cc2Cl)cc1	0.6
CCOc1ccc(C(=O)NCc2ccncc2)cc1	0.2
COc1cccc(Cn2c(NCC(C)C)nc3c2c(=O)n(C)c(=O)n3C)c1	0.6
CC1CCCC(C)N1C(=O)CSc1nnc(CSc2ncccn2)n1C (configuration not stated)	0.8
CCCCn1c(SCC(=O)Nc2cc(C)on2)nc2c1c(=O)n(C)c(=O)n2C	i

# Main list, from the start:
structure	H5N1 antiviral
COc1ccc(/C(=N\O)c2ncc(C(F)(F)F)cc2Cl)cc1	0.6
CCOc1ccc(C(=O)NCc2ccncc2)cc1	0.2
COc1cccc(Cn2c(NCC(C)C)nc3c2c(=O)n(C)c(=O)n3C)c1	0.6
CC1CCCC(C)N1C(=O)CSc1nnc(CSc2ncccn2)n1C (configuration not stated)	0.8
CCCCn1c(SCC(=O)Nc2cc(C)on2)nc2c1c(=O)n(C)c(=O)n2C	i
O=C(Nc1ccccc1N1CCN(C(=O)c2ccc(Cl)cc2)CC1)c1cc(Br)ccc1Cl	i
CCOc1ccc(Cn2nnc(C(=O)NCCc3ccc(Cl)cc3)c2N)cc1	1.0
C[n+]1cn(CC(O)COCc2ccccc2)c2ccccc21 (configuration not stated)	i
CCCCN(CCCC)C(=O)CSc1nnc(-c2cc(OC)c(OC)c(OC)c2)o1	i
N#Cc1c(N)nc(SCC(=O)NCCc2ccccc2)c(C#N)c1-c1cccs1	i
CSc1nc(C)cc(SCC(=O)Nc2ccccc2)n1	0.6
O=C(NCc1cccs1)C1CC(c2ccccc2O)=NO1 (configuration not stated)	0.0
CCOC(=O)c1nnn(-c2nonc2N)c1CNC(C)C	0.8
O=C(Oc1cccc2cccnc12)c1ccc(Br)o1	2.1
CC(C)C1C(C#N)=C(N)Oc2n[nH]c(C(C)(C)C)c21 (configuration not stated)	i
COC(=O)c1c(N(S(C)(=O)=O)S(C)(=O)=O)sc2c1CCN(c1ncc(C(F)(F)F)cc1Cl)C2	i
CCOC(=O)N1CCC(N2CCN(S(=O)(=O)c3ccc(NC(C)=O)cc3)CC2)CC1	2.1
CCCn1c(C)cc(C(=O)COc2ncnc3sccc23)c1C	0.1
CCCN1C2CCCC1CC(NC(C)=O)C2 (configuration not stated)	0.2
CC1=CC(C)(C)NC(=S)N1c1ccccc1	0.5
COc1ccc(OC)c(S(=O)(=O)N(C)CC(=O)Nc2ccccc2OC)c1	0.6
FC(F)(F)c1nc(N2CCCC2)ncc1-c1nnnn1-c1ccccc1	3.6
C=CCOc1ccc(CNn2nnnc2N)cc1	0.5
COc1ccccc1NC(=S)NNC(=O)c1cc(C)n(C)n1	0.8
CC1(C)Cc2c(c(-c3ccco3)[nH]c(=O)c2C#N)CS1	4.7
O=C(CSc1nnc(-c2ccccc2)o1)N1CCOCC1	0.9
CCOC(=O)N1CCN(S(=O)(=O)c2ccc(F)c(C(=O)Nc3cccc(C)c3C)c2)CC1	i
Cn1c(=O)[nH]c(=O)c2c1nc(SCC(O)CO)n2Cc1ccccc1Cl (configuration not stated)	0.6
Cc1ccc(Nc2nc(N)nc(CN3CCc4ccccc4C3)n2)cc1	0.4
CCn1nc(C(=O)N2CCN(Cc3ccc4c(c3)OCO4)CC2)c2ccccc2c1=O	i
CCCNC(=S)Nc1ccc(Nc2ccccc2)cc1	i
CC1CCCC(C)N1/N=C/c1ccc(Cl)cc1 (configuration not stated)	i
O=C(O)CCc1n[nH]c(=S)[nH]c1=O	0.3
CN1CC(c2ccc(Cl)c(Cl)c2)[C@@]2(COc3ccccc3C2=O)[C@@]12C(=O)Nc1ccccc12 (some centres not stated)	10
S=c1[nH]nc(-c2ccc(Br)cc2)n1Cc1ccco1	1.0
COCCNC(=O)CN(c1ccc(OC)c(OC)c1)S(=O)(=O)c1ccc(C)cc1	0.0
COc1ccc(OC)c(NC(=O)c2cc(S(=O)(=O)NCc3ccco3)ccc2F)c1	i
CCOc1ccccc1Oc1ccc(C(F)(F)F)cn1	0.8
CCOC(=O)c1c(N)nn(C(=O)C(C)(C)C)c1-c1ccccc1	1.3
O=C(CSCc1ccccc1Cl)NN1C(=O)c2ccccc2C1=O	i

# Three compounds already listed, ordered by length of the SMILES, high to low.
structure	H5N1 antiviral
CN1CC(c2ccc(Cl)c(Cl)c2)[C@@]2(COc3ccccc3C2=O)[C@@]12C(=O)Nc1ccccc12 (some centres not stated)	10
COCCNC(=O)CN(c1ccc(OC)c(OC)c1)S(=O)(=O)c1ccc(C)cc1	0.0
CCOC(=O)c1c(N)nn(C(=O)C(C)(C)C)c1-c1ccccc1	1.3

# More entries follow.
structure	H5N1 antiviral
CN(C)S(=O)(=O)c1ccc(C(=O)OCC(=O)NC(=O)NCc2ccccc2)cc1	1.4
O=C(Nc1cccc(OC(=O)N2CCOCC2)c1)N1CCOCC1	0.4
O=C(CSc1c(Cl)cccc1Cl)N1CCC(c2nc3ccccc3s2)CC1	2.5
COC(=O)NNC(=O)COc1ccc(Br)c(C)c1	i
Cc1ccc(CNC(=O)c2nnn(-c3cccc(C)c3)c2N)cc1	i
CC(=O)NCCC(=O)Nc1ccc(F)cc1C	0.7
O=C(Nc1c2c(nn1-c1ccc(Cl)cc1)CS(=O)(=O)C2)c1ccc2c(c1)OCO2	0.7
O=C(Nc1ccccn1)NC1CCS(=O)(=O)C1 (configuration not stated)	i
N#Cc1ccc(Cl)cc1NC(=O)COC(=O)c1ccc(S(=O)(=O)N2CCCC2)cc1	1.2
CCOc1ccc(CC2CC(=O)NC2=O)cc1 (configuration not stated)	i
O=C(NC1CCCCCCC1)c1ccccc1O	8.0
CCN1C(=O)NC2=C(C(=O)c3ccccc32)C1c1ccccc1F (configuration not stated)	i
O=C(Cn1cnc2c(nnn2Cc2ccccc2)c1=O)NCC1CCCO1 (configuration not stated)	0.5
c1coc(-c2nc3ccccc3nc2-c2ccco2)c1	0.5
CCOC(=O)N1CCN(S(=O)(=O)c2ccc3[nH]cc(C(=O)O)c(=O)c3c2)CC1	1.4
COCCCNC(=O)CN(c1ccc(Cl)c(Cl)c1)S(C)(=O)=O	i
O=C(CCCn1c(=O)[nH]c2cc(Cl)ccc2c1=O)NC1CCCCCC1	0.7
O=C(COC(=O)Cc1ccc(S(=O)(=O)N2CCOCC2)s1)NCc1ccc(Cl)cc1	i
CCOc1ccc(NC(=O)CCN2CCN(S(=O)(=O)c3ccc(Cl)cc3)CC2)cc1	0.4
CCCS(=O)(=O)N1CCCC(C(=O)NCCCN2CCN(c3cccc(Cl)c3)CC2)C1 (configuration not stated)	i
O=C(O)c1ccc(NS(=O)(=O)c2cccc3nsnc23)cc1	0.7
COc1ccc(OC)c(S(=O)(=O)NCc2csc(-c3ccccc3)n2)c1	0.7
COC(=O)CN(Cc1ccccc1)S(=O)(=O)c1ccc(OC)c(OC)c1	0.2
Clc1ccc(OCc2nn3c(-c4ccccc4)nnc3s2)c(Cl)c1	0.4
COc1ccc(C(=O)NCC(=O)OC2CCCCC2=O)cc1 (configuration not stated)	0.9
Cc1ccc(S(=O)(=O)N=S(CC2CC2(Cl)Cl)CC2CC2(Cl)Cl)cc1 (configuration not stated)	i
N#CCCCSc1nnc(-c2ccccn2)o1	22
O=C(c1ccc(Cn2cc(Br)cn2)cc1)N1CCN(c2ccccc2)CC1	0.3
NS(=O)(=O)c1ccc(NS(=O)(=O)c2cccs2)cc1	0.2
Cc1ccc2[nH]c3c(c2c1)CN(C(=O)CN1CC(C)OC(C)C1)CC3 (configuration not stated)	i
O=c1cc(-c2ccccc2)nc(SCc2ccc(Cl)cc2)[nH]1	0.1
O=C(NC1CCCCC1)C1CCCN1S(=O)(=O)c1cccc2nsnc12 (configuration not stated)	0.8
CCCCOc1ccc(-c2ncc(Cl)cn2)cc1	i
CC(C)c1cc(C(=O)Nc2cccc(C(F)(F)F)c2)no1	i
CCC(C)NC(=O)C1CCN(S(=O)(=O)c2cccc3cccnc23)CC1 (configuration not stated)	0.5
FC(F)(F)c1cccc(N2CCN(c3ccc4nnc(-c5ccccc5)n4n3)CC2)c1	0.5
COc1cc2cc(CN(CCCO)S(=O)(=O)c3ccccc3Cl)c(=O)[nH]c2cc1OC	1.5
O=C(COC(=O)c1cccnc1)c1ccc(Cl)cc1	0.6
CC(O)CNCc1ccc(-c2ccccc2)cc1 (configuration not stated)	0.5
CCOC(=O)C1CCN(S(=O)(=O)c2cccc(-c3cn4cc(Cl)ccc4n3)c2)CC1	1.3
Cc1cccc(NC(=O)c2cc(NC(=O)c3ccccc3)ccc2N2CCCCC2)c1	i
COc1cccc(-n2c(=O)[nH]cc(C(=O)Nc3ccc4c(c3)OCCO4)c2=O)c1	i
CCOc1cccc(/C(O)=C2/C(=O)C(=O)N(Cc3ccco3)C2c2ccncc2)c1 (configuration not stated)	i
Cc1ccc(SC(C)C(=O)Nc2cccc(N(C)S(C)(=O)=O)c2)cc1 (configuration not stated)	0.5
N#Cc1ccccc1Sc1ccccc1C(=O)N1CCOCC1	1.3
CCOC(=O)N=S(=O)(Oc1ccc([N+](=O)[O-])cc1)c1ccccc1 (configuration not stated)	i
CN(CC(=O)Nc1ccncc1)S(=O)(=O)c1ccc(Cl)cc1	0.5
O=C(O)CN1C(=O)C2(OCCCO2)c2ccccc21	0.5
CCOC(=O)c1cnc(SCC(=O)c2ccccc2)nc1N	i
O=C(c1cccnc1)N1CCc2ccccc2C1	i
CC1=CC(=O)NP(=O)(Oc2ccc3ccccc3c2)N1 (configuration not stated)	0.7
CCOc1cc(C(=O)OCC(=O)c2c[nH]c3ccccc23)ccc1OCC(=O)N1CCOCC1	i
O=C(COc1ccc(S(=O)(=O)NCc2ccccc2)cc1Cl)NCC1CCCO1 (configuration not stated)	1.9
CCOc1ccc(-c2c(=O)n(OCc3ccccn3)c3ccccc3[n+]2[O-])cc1	1.6
Cc1cc(C)c(S(=O)(=O)N2CCN(c3ccc([N+](=O)[O-])c(NCc4ccco4)c3)CC2)c(C)c1	i
O=C1NC2(C=Cc3c(ccc4ccccc34)O2)Oc2ccccc21 (configuration not stated)	0.6

# Remaining list, next part.
structure	H5N1 antiviral
O=C(Cc1ccccc1)OCCNC(=O)c1cccnc1	1.0
CCOc1ccc2[nH]c(=O)c(=O)[nH]c2c1	1.0
Nc1ccc(CCc2nc3ccccc3o2)cc1	i
CN1C(=O)c2cccc3c(S(=O)(=O)Nc4ccccn4)ccc1c23	3.4
COc1ccc(OCC(O)CN2C(=O)c3ccccc3S2(=O)=O)cc1 (configuration not stated)	i
CC1CN=C(Nc2ccccc2)S1 (configuration not stated)	i
COc1ccc(-c2nn3c(COc4ccccc4)nnc3s2)cc1OC	2.2
O=C(NCCCCNC(=O)c1c(F)c(F)c(F)c(F)c1F)c1c(F)c(F)c(F)c(F)c1F	i
CC1CCC2(CC1)NC(=O)N(CC(=O)NC(=O)NC1CCCC1)C2=O (configuration not stated)	i
Cc1cc(C(=O)Nc2ccccc2N2CCOCC2)c2ccccc2n1	i
CCCCN(C(=O)Cn1nnc2ccccc21)C(C(=O)NCc1ccco1)c1ccncc1 (configuration not stated)	0.1
Cc1ccc(NC(=O)N(CCCN2CCOCC2)Cc2cccnc2)cc1C	i
CC(=O)N1c2ccccc2NC(=O)C1(C)C	0.7
Cc1ccc(C(=O)O)cc1N1C(=O)c2cccc3cc(Br)cc(c23)C1=O	0.3
Cc1ccc2nc(-c3cccnc3)oc2c1	i
COc1ccc(CCNc2cc(-c3ccccc3)nc3ncnn23)cc1	2.2
Cc1csc(-c2coc3cc(O)cc(C)c3c2=O)n1	i
CCCC(=O)Nc1cc(OC)c(NC(=O)NC2CCCCC2)cc1OC	1.3
COc1ccc(C(=O)NCC(=O)N2CCC(C)CC2)cc1OC	i
CC(C)C(=O)N1CCN(c2c(Cl)cccc2[N+](=O)[O-])CC1	i
O=S(=O)(c1ccccc1)c1cccc(S(=O)(=O)N2CCCCC2)c1	0.8
CCn1c(SCC(=O)c2ccc(OC)cc2)nnc1C(C)NC(=O)c1ccc(OC)cc1 (configuration not stated)	i
COc1ccc(C2C(C(=O)Nc3ccccn3)=C(C)Nc3ncnn32)c(OC)c1 (configuration not stated)	0.2
CCn1nnnc1Oc1ccc(Cl)cc1	i
CCOC(=O)NNC1CC(=O)N(c2ccc(OC)cc2)C1=O (configuration not stated)	0.1
CC(C)OCCCNC(=O)CCN1C(=O)COc2ccccc21	0.4
CCOC(=O)c1sc(NC(=O)c2ccc(S(=O)(=O)N(C)C)cc2)nc1C	i
Cc1nn(Cc2ccccc2Cl)c(C)c1NC(=O)NC12CC3CC(CC(C3)C1)C2	0.2
CCOC(=O)c1sc2ncnc(N3CCN(C(=O)OCC)CC3)c2c1C	i
COc1cc2c(C#N)c(N3CCN(c4ccccc4OC)CC3)nc(N)c2c(N)n1	i
CCOC(=O)CSc1nnc(CNC(=O)c2cccs2)n1Cc1ccccc1	0.8
CN1CCN(c2nc(Nc3cccc(C(F)(F)F)c3)nc(N3CCOCC3)n2)CC1	i

# Structural class, those above with a nitro group on carbon
structure	H5N1 antiviral
CCOC(=O)N=S(=O)(Oc1ccc([N+](=O)[O-])cc1)c1ccccc1 (configuration not stated)	i
Cc1cc(C)c(S(=O)(=O)N2CCN(c3ccc([N+](=O)[O-])c(NCc4ccco4)c3)CC2)c(C)c1	i
CC(C)C(=O)N1CCN(c2c(Cl)cccc2[N+](=O)[O-])CC1	i

# Continuation:
structure	H5N1 antiviral
CCOC(=O)C(C(=O)NCc1ccc(C)cc1)c1ncc(C(F)(F)F)cc1Cl (configuration not stated)	0.8
Cc1ccc(NC(=O)C(C)Sc2nnc(-c3cccnc3)o2)cc1 (configuration not stated)	0.8
Cc1ccccc1N(C)S(=O)(=O)c1ccc2[nH]cc(C(=O)NCC3CCCO3)c(=O)c2c1 (configuration not stated)	2.4
CCOC(=O)c1nnn(CC(=O)Nc2cc(F)ccc2F)c1C(=O)OCC	0.1
OCc1cn(-c2ccccc2)nc1-c1cccnc1	2.0
O=C(Nc1ccccc1N1CCCCC1)c1cccc(F)c1	0.1
